# CtBP-E1A inh = blocks the CtBP interaction with E1A | AlphaScreen GST-E1A/His-CtBP binding, 1536-well; stronger effect = lower value; control for the full effect not named in the record | activity change, % (test concentration not listed) | actives 0.49% (n = 340,000) | AID 651724; in the data active means activity change below about -65%; inconclusive means about -30% to -65%; inactive means above about -30%; note: % is set by controls: 0 for no effect and ±100 for the full control effect; compound concentration not given in the record
#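 Steps: dispense buffer (Tris pH 8.0, NaCl 300 mM, TCEP 1 mM, BSA, Tween 20); add 5X protein mix (GST-E1A, His-CtBP, 125 nM each); pin 23 nL compound; 2 h at 37 °C, dark; add 5X beads (50 ug/mL); 1 h; read.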
# TRPML1 agonist = activates the human TRPML1 channel; Q9GZU1; activation, % (concentration not given with the values); TRPML1-expressing cells, Ca2+ dye fluorescence, FDSS; host cell line not named in the record; reference of the full effect not given here; actives 0.12% (n = 410,000); in the data active = activation above about 50%; inconclusive = about 30% to 50%; inactive = below about 30%; note: 0% is about no effect; the text of the record puts the active cut at 80%
# Target sequence (Q9GZU1 whole entry, looked up): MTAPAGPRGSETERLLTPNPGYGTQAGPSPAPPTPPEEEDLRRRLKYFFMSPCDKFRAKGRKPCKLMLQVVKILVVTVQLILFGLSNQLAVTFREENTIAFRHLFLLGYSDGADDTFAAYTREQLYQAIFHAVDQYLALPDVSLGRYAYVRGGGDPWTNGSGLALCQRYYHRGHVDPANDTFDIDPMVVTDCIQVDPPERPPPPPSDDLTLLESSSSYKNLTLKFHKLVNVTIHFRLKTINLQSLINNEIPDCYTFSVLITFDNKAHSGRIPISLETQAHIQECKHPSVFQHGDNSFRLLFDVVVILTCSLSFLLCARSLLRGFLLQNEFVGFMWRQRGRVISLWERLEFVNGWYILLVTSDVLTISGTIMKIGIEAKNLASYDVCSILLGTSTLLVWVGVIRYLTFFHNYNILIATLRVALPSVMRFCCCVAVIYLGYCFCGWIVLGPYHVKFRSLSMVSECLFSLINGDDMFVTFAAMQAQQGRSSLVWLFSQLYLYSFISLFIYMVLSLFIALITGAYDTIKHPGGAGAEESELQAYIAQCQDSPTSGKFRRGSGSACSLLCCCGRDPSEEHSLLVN
#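 Calcium fluorescence on an FDSS kinetic reader gave the read-out. Tet-induced TRPML1-DL cells were plated overnight, dye-loaded (Ca8 with quencher, 45-90 min, room temperature, dark), then read 110 s after compound addition, and again 110 s after 4uM final 54-4 (EC80).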
# D2 agonist = human D2 receptor agonism in beta-arrestin assay; P14416; DiscoveRx PathHunter D2 beta-arrestin, luminescence, 90 min; 100% = 57 uM dopamine signal; activation, % (no concentration beside the values); actives 0.084% (n = 360,000); in the data active = activation above about 40%; inconclusive = about 15% to 40%; inactive = below about 15%; note: compound concentration not given in the record; the text of the record calls up to 30% inactive
# Target sequence (P14416 whole entry, looked up): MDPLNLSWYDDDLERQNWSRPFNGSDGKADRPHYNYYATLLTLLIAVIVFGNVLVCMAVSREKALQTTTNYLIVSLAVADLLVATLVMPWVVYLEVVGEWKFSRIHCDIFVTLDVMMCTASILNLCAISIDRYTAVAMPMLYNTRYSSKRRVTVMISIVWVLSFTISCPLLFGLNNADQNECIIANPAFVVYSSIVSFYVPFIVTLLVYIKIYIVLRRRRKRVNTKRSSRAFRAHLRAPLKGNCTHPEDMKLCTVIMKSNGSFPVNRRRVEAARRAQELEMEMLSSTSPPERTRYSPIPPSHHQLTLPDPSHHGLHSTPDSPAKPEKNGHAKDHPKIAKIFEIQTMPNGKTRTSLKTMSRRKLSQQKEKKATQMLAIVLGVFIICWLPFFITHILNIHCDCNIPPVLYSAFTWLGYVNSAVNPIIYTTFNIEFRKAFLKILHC
#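 Agonist mode: compounds alone added to overnight-plated D2 PathHunter cells for 90 min at 37 C, with 57 uM final dopamine (EC100) defining full response. Beta-arrestin recruitment detected by chemiluminescent reagent, read after 1 h at ambient temperature.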
# D2 potentiator = human D2 receptor positive allosteric modulation | DiscoveRx D2 beta-arrestin cells, luminescence, 90 min; 100% = 57 uM dopamine signal | potentiation, % (no concentration beside the values) | actives 0.23% (n = 360,000) | AID 624464; active = potentiation of 50% or more; inconclusive = 30% to 50%; inactive = 30% or less;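 note: compound concentration not given in the record; tested on top of an EC20 dose of dopamine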
#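 PathHunter beta-arrestin assay in DiscoveRx D2 cells. Compounds were added with an EC20 of dopamine (50 nM final) for 90 min at 37 deg C. Luminescence was read 1 h after detection reagent, with 57 uM dopamine as the EC100 control.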
# Six1-Eya2 blk = blocks human Six1 binding to Eya2; AlphaScreen GST-Six1/His-Eya2 binding, biochemical; stronger effect = lower value; control for the full effect not named in the record; activity change, % (test concentration not listed); actives 0.56% (n = 360,000); AID 651725; in the data active = activity change below about -65%; inconclusive = about -30% to -65%; inactive = above about -30%; note: % is set by controls: 0 for no effect and ±100 for the full control effect; compound concentration not given in the record
#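 Homogeneous AlphaScreen proximity assay pairing GST-Six1 with His-tagged Eya2 (added as 5X mix: 250 nM and 500 nM) in 50 mM Tris pH 8.0, 300 mM NaCl, 1 mM TCEP. Glutathione donor and nickel acceptor beads; 1 h, 37 °C, dark.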
# PINK1 modulator = PINK1 expression modulation; AID 624263; PINK1 immunofluorescence, high-content cytometry, 24 h; Potency, µM (highest dose often 76.6 µM), for inactives: top-dose activation (PINK1 increase), hits mostly activators; actives 0.2% (n = 410,000); active = well fitted activation curve with a large enough effect; inconclusive = small, poorly fitted or top-dose-only effect; inactive = flat fitted curve, though single readings scatter; cell line not stated here;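 note: potency is the fitted concentration of half-maximal effect; % of control where 0% means no effect; nearly all actives have a fitted effect of over 65% in size; a mitochondrial uncoupler was the plate control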
#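 Fluorescence from anti-PINK1 antibody, together with nuclear and cell stains, was scanned on a laser-scanning cytometer. Before staining, stable-line cells were incubated 24 hours with compounds at 5 concentrations; primary antibody 12 h at 10 degrees C.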
# The depositor's hits bear a star; ? = inconclusive; · = no result given; [ ] = remark or other dose.
Molecule	CtBP-E1A inh	Six1-Eya2 blk	D2 potentiator	PINK1 modulator	TRPML1 agonist	D2 agonist
Cc1ccc2cc(CN(CC3CCCO3)S(=O)(=O)c3ccc4c(c3)OCCO4)c(=O)[nH]c2c1C (stereo not drawn)	-1	4	-2	?	4.7	-0.8
COc1ccc(NC(=O)COc2ccc(C)nc2[N+](=O)[O-])cc1S(N)(=O)=O	0	-1	-2	0.0%	2.2	-0.7
CCn1c(SCc2ccc([N+](=O)[O-])cc2)nnc1C(C)NC(=O)c1ccccc1Br (stereo not drawn)	14	8	2	·	0.1	-0.9
CN(Cc1ccc(F)cc1)C(=O)c1sccc1-c1ccccc1	1	2	-4	0.7%	0.6	0.9
Oc1ccc(-c2nc(-c3ccc(O)c(O)c3)cs2)cc1	?	-21	50*	-0.3%	0.1	14
CCCN(C(=O)c1cc(S(=O)(=O)N(C)c2ccc(OCC)cc2)ccc1C)C1CCS(=O)(=O)C1 (stereo not drawn)	8	-2	-3	0.0%	-0.2	-5.0
COc1ccccc1N1N=C(c2cccs2)CC1c1ccccc1 (stereo not drawn)	97	103	-25	-1.0%	3.1	-0.6
COc1ccc(NC(=S)NC(NC(=O)C(C)C)C(Cl)(Cl)Cl)c([N+](=O)[O-])c1 (stereo not drawn)	-7	-10	4	-0.1%	1.0	1.0
Cn1c(=O)n(C)c2cc(/C=N/NC(=O)c3ccc(Cl)cc3Cl)ccc21	?	?	5	-1.2%	-0.6	-0.7
N#CCC(=O)Nc1ccc(C(=O)NNC(=O)CCN2CCN(c3ccccc3)CC2)cc1	-12	-12	-1	-0.3%	0.2	?
COC(=O)c1cc2oc(C)cc2n1CC(=O)N(C)c1ccccc1	-4	-2	-4	3.5%[38.3 µM]	1.0	2.4
CC(C)(C)OC(=O)N(Cc1ccccc1)Cc1ccccc1OCc1cccc(NC(=O)C2CC2)c1	1	0	-6	-0.4%	2.0	0.8

# New compounds follow.
Molecule	CtBP-E1A inh	Six1-Eya2 blk	D2 potentiator	PINK1 modulator	TRPML1 agonist	D2 agonist
C[C@@H]1CN([C@H](C)CO)C(=O)CCCn2cc(nn2)CO[C@H]1CN(C)C(=O)Nc1cccc(F)c1	1	4	3	0.6%	-0.4	-1.2
Cc1ccccc1-c1cc(C(=O)NCc2ccc3c(c2)OCO3)nn1CC1CC(c2cccc([N+](=O)[O-])c2)=NO1 (stereo not drawn)	0	-9	-34	0.7%	0.4	-1.8
CCN(c1ccccc1)S(=O)(=O)c1cccc(C(=O)N(C)CC(=O)Nc2ccc(F)c(F)c2F)c1	-3	3	-1	-0.1%	-0.2	-1.9
O=C(CCN1C(=O)c2ccccc2S1(=O)=O)NCc1ccccc1Cl	4	0	-17	-2.0%	0.5	-5.1
CC(N=C1CC(C)(C)CC(=O)/C1=C(/O)CCCN1C(=O)c2ccccc2C1=O)C(=O)O (stereo not drawn)	7	11	-2	2.2%	0.7	2.2
CC(=O)Nc1cccc(-c2ccnc3c2CC(C(=O)NCc2cccs2)O3)c1 (stereo not drawn)	0	-7	-4	10%	0.0	3.5
COc1ccccc1CC(=O)Nc1cccc(F)c1	3	11	-9	-1.5%	-0.1	1.5
CC(=O)Nc1ccccc1P(=O)(c1ccccc1)c1ccccc1OC(C)=O (stereo not drawn)	-2	0	-4	-1.4%	-0.4	-4.4
CCn1c(C)[n+](Cc2ccccc2)c2ccc(C(=O)OC)cc21	-8	-3	-9	0.0%	0.0	0.0
Cc1cc(NC(=O)CN2CCCC2c2nc3ccccc3s2)no1 (stereo not drawn)	1	-4	6	-2.3%	-0.3	-2.0
N/C(Cc1ccc(Cl)cc1Cl)=N\OC(=O)Cc1ccc(Cl)cc1	18	52	2	5.4%	-0.4	-4.3
O=C(NC1CCCCC1)C(c1ccncc1)N(Cc1ccccc1)C(=O)c1ccc(-c2ccccc2)[nH]1 (stereo not drawn)	?	-26	-12	-2.7%	4.9	-1.2

# The list continues.
Molecule	CtBP-E1A inh	Six1-Eya2 blk	D2 potentiator	PINK1 modulator	TRPML1 agonist	D2 agonist
Cc1noc(C)c1COC(=O)CCCNC(=O)c1ccc(Cl)cc1	·	3	0	1.8%	0.6	-4.5
COc1ccc(C(C)(C)C)cc1NC(=O)C1CC(=O)N(C2CCCC2)C1 (stereo not drawn)	-4	1	-43	-0.6%	0.3	-2.5
CCN(C(=O)C(C)OC(=O)c1nn(-c2ccccc2C(F)(F)F)cc1O)c1ccccc1 (stereo not drawn)	14	11	-6	0.7%	0.2	-4.9
CCCn1c(SCC(=O)/C(C#N)=C(\C)N)n[nH]c1=O	2	0	-4	10%[38.3 µM]	0.6	-1.3
COc1ccc(N(C)C2=NS(=O)(=O)c3ccccc32)cc1	12	1	5	-1.7%	-1.0	-0.1
Cc1ccc(C(=O)OCC(=O)c2ccc(S(=O)(=O)N3CCCCC3)cc2)o1	-10	-9	-50	-0.5%	1.1	-15
Cc1coc2cc3oc(=O)c(CCC(=O)O)c(C)c3cc12	-8	-4	-4	0.1%	-0.3	-1.9
COc1cc(S(=O)(=O)N2CCCCC2)ccc1NC(=O)c1ccncc1	-3	-5	-2	-0.8%	-0.6	-2.1
C/C(=N\NC(=O)c1ccoc1C)c1cccnc1	2	-1	4	-0.7%	-1.3	-10.0
O=C(NCc1cccnc1)c1cccc(-c2cc3ccccc3oc2=O)c1	-10	5	1	0.4%	-0.4	1.2
Cc1ccc(S(=O)(=O)NCC(=O)NCC(=O)NC(C)c2ccccc2Br)cc1C (stereo not drawn)	2	0	-6	0.5%	-1.0	-4.1
O=C(NCC1CCCCC1)c1ccc([N+](=O)[O-])cc1	·	-12	-59	1.4%	·	10

# Next section (2 carried over from the part before).
Molecule	CtBP-E1A inh	Six1-Eya2 blk	D2 potentiator	PINK1 modulator	TRPML1 agonist	D2 agonist
Cc1ccc(S(=O)(=O)NCC(=O)NCC(=O)NC(C)c2ccccc2Br)cc1C (stereo not drawn)	2	0	-6	0.5%	-1.0	-4.1
O=C(NCC1CCCCC1)c1ccc([N+](=O)[O-])cc1	·	-12	-59	1.4%	·	10
COC(=O)c1scc(C)c1NS(=O)(=O)c1ccc(NC(C)=O)cc1	-9	4	-2	-0.8%	0.8	-2.0
NS(=O)(=O)c1ccc(NC(=O)/C=C/c2ccc(S(=O)(=O)NCc3ccco3)cc2)cc1	-18	0	5	-1.7%	-0.8	1.0
O=C(CCc1ccccc1)Nc1ccc(NC(=O)c2ccco2)nc1	-5	-2	7	0.1%	-0.1	-0.5
COc1cc(/C=C2\SC(=O)NC2=O)ccc1Oc1ccc([N+](=O)[O-])cn1	?	-4	-1	6.2%	1.5	3.9
CCOC(=O)c1cnc(-c2ccccc2)nc1N1CC(C)OC(C)C1 (stereo not drawn)	·	21	-7	2.4%	-0.4	-5.8
Cc1cc2c(c(=O)o1)C(CCC1CCCCC1)C(C#N)=C(N)O2 (stereo not drawn)	-8	-1	0	1.1%	1.1	2.5
CN1\C(=C/C=C/C=C/C=[N+](C)C)C(C)(C)c2ccccc21	·	?	-19	?	86*	8.0
CCN(CC(=O)Nc1ccc2c(c1)OCCO2)CC(=O)Nc1ccccc1C(F)(F)F	-3	1	-5	0.5%	0.9	-1.9
CC1(c2ccccc2)NC(=O)N(CC#N)C1=O (stereo not drawn)	-12	-5	-28	0.4%	-0.8	-4.1
CCOC(=O)C1C(O)=CC(=O)CC1c1ccccc1 (stereo not drawn)	7	1	-3	1.6%	-0.5	-0.6
CN1CCn2cnc(C(=O)N3CCN(c4ccccc4)CC3)c2C1=O	3	0	·	-1.2%	·	0.0
CCN(c1ccccc1)S(=O)(=O)c1cc(C(=O)O)ccc1C	6	2	2	1.3%	-1.0	-2.0

# Other compounds:
Molecule	CtBP-E1A inh	Six1-Eya2 blk	D2 potentiator	PINK1 modulator	TRPML1 agonist	D2 agonist
Cc1nnc(N/N=C/c2ccccc2C(F)(F)F)n1N	·	-3	-7	1.1%	·	?
COc1cccc(-c2nc(-c3ccc(NC(=O)c4ccncc4)cc3)no2)c1	6	4	-15	·	0.0	1.5
CCC1(CC)NC(=O)N(CC(=O)OCC(=O)Nc2sccc2C#N)C1=O	5	-8	-8	-1.9%	-0.1	4.5
CC(=O)N1CCC2(CC1)C(C#N)=C(N)Oc1c2sc2nc(C)cc(C)c12	2	-11	-15	27%	0.1	-2.0
CC(C)(C#CC(O)(c1ccccc1)c1ccccc1)N1CCCC1	-11	-6	-3	0.4%	0.6	-7.2
O=C(NCCO)c1ccc2c3n(nc2c1)-c1ccccc1CO3	·	-5	-1	0.4%	-0.1	-0.2
COc1ccc(C2=NS(=O)(=O)N(C)C(C(=O)Nc3ccc4c(c3)OCO4)=C2)cc1OC	-27	-20	12	1.4%	0.1	-5.2
O=C(O)CC1SC(N/N=C/c2ccc(Br)cc2)NC1=O (stereo not drawn)	·	1	-7	-0.1%	0.0	-3.8
CCN1CCN(c2ccc(Nc3ccnc4ccccc34)cc2)CC1	-24	-8	-4	-0.2%	4.2	2.1
Clc1ccc2c(-c3ccccc3)nc(-c3cccs3)nc2c1	8	6	·	2.8%	-0.6	·
COc1ccc(Cl)cc1NC(=O)CN(C)CC(=O)Nc1ccccc1C(F)(F)F	3	4	1	1.9%	1.8	1.6
Cc1cc(-c2c(C(=O)N3CCOCC3)c(C)nn2-c2cccc(C(F)(F)F)c2)no1	7	9	-14	-0.2%	-0.2	0.5

# (continued)
Molecule	CtBP-E1A inh	Six1-Eya2 blk	D2 potentiator	PINK1 modulator	TRPML1 agonist	D2 agonist
COCCn1c(SCC(=O)Nc2ccccc2OC)nnc1-c1ccco1	-15	6	-5	1.4%	-0.7	-3.1
CCOc1ccc(NC(=O)Nc2cc(C)on2)cc1	41	21	-17	15%[38.3 µM]	-0.2	-2.6
CN(Cc1ccc(F)cc1)C(=O)CN1CCN(S(=O)(=O)c2ccc3c(c2)OCCCO3)CC1	3	0	-9	0.8%	-0.2	3.4
COc1ccccc1N1CCN(S(=O)(=O)c2cccc(F)c2)CC1	7	3	-15	·	-0.4	-1.2
Cc1ccc(S(=O)(=O)N(C)CC(=O)NCCCn2nc(C)cc2C)cc1	0	1	-13	2.3%	-0.4	-2.6
O=C(COC(=O)CNC(=O)c1ccc(Cl)cc1)NC1CCCCCC1	-2	8	-4	1.0%	0.5	-7.2

# Arranged by value in CtBP-E1A inh (low to high): 6 of the compounds above
Molecule	CtBP-E1A inh	Six1-Eya2 blk	D2 potentiator	PINK1 modulator	D2 agonist
COCCn1c(SCC(=O)Nc2ccccc2OC)nnc1-c1ccco1	-15	6	-5	1.4%	-3.1
O=C(COC(=O)CNC(=O)c1ccc(Cl)cc1)NC1CCCCCC1	-2	8	-4	1.0%	-7.2
Cc1ccc(S(=O)(=O)N(C)CC(=O)NCCCn2nc(C)cc2C)cc1	0	1	-13	2.3%	-2.6
CN(Cc1ccc(F)cc1)C(=O)CN1CCN(S(=O)(=O)c2ccc3c(c2)OCCCO3)CC1	3	0	-9	0.8%	3.4
COc1ccccc1N1CCN(S(=O)(=O)c2cccc(F)c2)CC1	7	3	-15	·	-1.2
CCOc1ccc(NC(=O)Nc2cc(C)on2)cc1	41	21	-17	15%[38.3 µM]	-2.6
